Screens (PubChem BioAssay)
Rango release inh = qHTS Assay for Inhibitors of RanGTP induced Rango (Ran-regulated importin-beta cargo) - Importin beta complex dissociation; Biochemical FRET Rango-importin beta, RanGTP-induced dissociation; Potency, µM (doses to about 46.1 µM), for the others: top-dose activity change, negative = inhibition; 340,000 compounds, 0.071% hits; active means falling FRET ratio curve, often poorly fitted, with flat reads before Ran was added; inconclusive means other falling curves, or compound fluorescence or quenching; inactive means flat or rising ratio curve;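 also: potency is read from the fitted curve at half-maximal effect; % of control where 0% means no effect; nearly all actives have a fitted effect of over 45% in size; -100% = wells without RanGTP and RCC1; the record marks most hits as doubtful in a second field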
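Recombinant Rango FRET biosensor (EYFP–snurportin 1 IBB–cerulean CFP10) at 0.1 uM premixed with 0.25 uM importin beta in PBS, 1 mM DTT, 0.02% Tween-20, 0.1% BSA. Compound added 5 min; RanGTP-RCC1 (0.6 uM Ran, 2 mM GTP, 0.2 uM RCC1) then triggers release, read at 45 min.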
Rango-impB inh = qHTS Assay for Inhibitors of Rango (Ran-regulated importin-beta cargo) - Importin beta complex formation | Rango CFP/YFP FRET sensor + importin beta, 45 min | Potency, µM (highest dose often 92.2 µM), for inactives: at the top dose inhibition of complex formation | 340,000 compounds, 0.031% hits | AID 540263, 2011; active = rising FRET ratio curve, often small or poorly fitted; inconclusive = mostly compound fluorescence or quenching in the first reads; inactive = flat curves in all reads;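 also: potency is read from the fitted curve at half-maximal effect; 0% = DMSO wells and 100% = buffer wells lacking importin beta; nearly all actives have a fitted effect of over 15% in size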
Target sequence (Q14974 whole entry, looked up): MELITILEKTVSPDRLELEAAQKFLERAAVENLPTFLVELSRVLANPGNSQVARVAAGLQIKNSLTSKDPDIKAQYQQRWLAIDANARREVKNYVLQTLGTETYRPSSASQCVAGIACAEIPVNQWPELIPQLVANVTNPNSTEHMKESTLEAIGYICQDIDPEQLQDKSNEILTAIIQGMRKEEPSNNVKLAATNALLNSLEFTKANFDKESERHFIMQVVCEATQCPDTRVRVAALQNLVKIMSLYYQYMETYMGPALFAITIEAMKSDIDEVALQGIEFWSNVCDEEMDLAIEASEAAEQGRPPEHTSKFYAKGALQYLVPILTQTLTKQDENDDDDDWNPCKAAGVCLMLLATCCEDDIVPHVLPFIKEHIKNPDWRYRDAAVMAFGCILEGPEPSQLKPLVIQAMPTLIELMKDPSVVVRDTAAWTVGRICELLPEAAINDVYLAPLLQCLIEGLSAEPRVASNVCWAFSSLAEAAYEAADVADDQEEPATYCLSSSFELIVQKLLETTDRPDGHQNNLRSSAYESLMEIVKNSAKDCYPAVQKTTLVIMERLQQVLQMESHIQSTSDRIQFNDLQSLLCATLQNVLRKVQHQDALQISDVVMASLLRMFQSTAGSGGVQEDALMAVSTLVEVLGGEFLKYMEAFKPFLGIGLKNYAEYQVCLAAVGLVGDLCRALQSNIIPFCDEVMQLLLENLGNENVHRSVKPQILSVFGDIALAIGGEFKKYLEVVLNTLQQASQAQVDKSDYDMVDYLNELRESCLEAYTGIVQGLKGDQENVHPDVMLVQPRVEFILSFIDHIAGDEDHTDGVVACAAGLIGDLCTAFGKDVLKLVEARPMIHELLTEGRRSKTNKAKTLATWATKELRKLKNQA
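FRET biosensor Rango (snurportin 1 IBB between N-terminal EYFP and C-terminal Cerulean), 50 nM in PBS/1 mM DTT/0.02% Tween-20/0.1% BSA, preincubated 5 min RT with compound; 0.125 microM importin beta added, 45 min RT, CFP/YFP FRET ratio read.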
GLA inh pH 4.5 = qHTS Assay for Inhibitors of Human alpha-Galactosidase at pH 4.5. Alpha-galactosidase A (Homo sapiens), P06280. purified enzyme, 4-MU-alpha-Gal fluorescence, pH 4.5. activity change, negative = inhibition, % at 105 µM. 230,000 tested, under 10 active. AID 1467, 2008; inconclusive = small, poorly fitted or top-dose-only inhibition, or a rising curve; inactive = flat fitted curve, though single readings scatter; no compound was filed as active;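 also: 0% = full activity with enzyme and -100% = basal without enzyme; dose as in the result columns while the protocol names 77 µM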
miR-21 FLuc = qHTS Assay for Modulators of miRNAs and/orActivators of miR-21 | HeLa miR-21 FLuc reporter, luciferase, 48 h | Potency, µM (top dose mostly 38.3 µM), for the others: at the top dose reporter change, positive = more light | 340,000 tested, under 10 active; active = well fitted rising curve with a large enough effect; inconclusive = small, poorly fitted or top-dose-only effect; inactive = no such curve, though single readings can be large or run the other way;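 also: % of control where 0% means no effect; miR-21 action dims this reporter so a rising signal means less miR-21 action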
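Luminescence from a firefly luciferase reporter carrying a miR-21 binding site downstream, stably expressed under a CMV promoter in HeLa cells that make miR-21 endogenously, reports miRNA modulation after 48 h compound exposure up to approximately 40uM final.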
Active calls of the source: *; ? = inconclusive; nt = not tested or not shown.

SMILES	Rango release inh	Rango-impB inh	GLA inh pH 4.5	miR-21 FLuc
CC(=O)N(c1ccccc1)c1ccc([N+](=O)[O-])cc1[N+](=O)[O-]	10.3%	3.4%	-3.7	-2.7%
CC1=Nc2ccccc2N=C(NC(=O)CSC(=S)N2CCN(C)CC2)C1c1ccccc1 (stereo not given)	-18.8%	0.5%	-0.8	5.6%
COc1cc(C2C3=C(CC(C)(C)CC3=O)N(C)C3=C2C(=O)CC(C)(C)C3)ccc1O	-22.6%	?	nt	1.5%
Cc1ccccc1C(=O)N1CCC(n2nccc2NC(=O)CCOc2ccccc2)CC1	-6.5%	-0.3%	nt	-3.7%
COc1cc(CNCc2ccco2)ccc1OCc1ccccc1	4.7%	2.2%	5.3	-23.4%
COc1ccc(C(=O)N/N=C\c2ccc(OC)c(COc3ccccc3Br)c2)c(OC)c1	6.8%	4.8%	nt	15.3%
O=C(/C=C/c1ccccc1)NNC(=O)c1cccs1	-9.1%	5.4%	-19.1	-19.0%
COc1ccc2c(c1)[nH]c1c(=O)n(/N=C/c3ccc(OC)c(COc4ccccn4)c3)cnc12	1.9%	-2.5%	4.5	-19.8%
O=C(CS(=O)(=O)c1ccccc1)Nc1ccc(Br)cn1	-15.7%	3.8%	-0.5	-21.6%
O=C(COc1ccc(Br)cc1CNCCc1ccccc1)NCc1ccccc1	8.3%	-0.9%	-10.6	28.7%
O=C(CSc1nnnn1-c1cccnc1)Nc1ccccc1F	0.8%	0.7%	nt	-7.3%
O=C(Nc1nonc1-c1ccc(F)cc1)c1ccco1	-2.6%	?	nt	-2.6%
COc1cccc(NC(=O)CN2CCN(CC(=O)Nc3ccccc3Cl)CC2)c1	15.4%	3.3%	nt	0.2%
CCOC(=O)c1cnc2ncnn2c1N	3.8%	4.0%	-3.5	4.2%
CCCCNC(=O)N1CCN(c2ccnc3cc(Cl)ccc23)CC1	2.0%	-0.7%	nt	8.3%
O=C(CCCN1C(=O)/C(=C/c2cccs2)SC1=S)Nc1ccc(C(=O)O)cc1	26.3%	-3.9%	-1.7	4.9%
COc1ccc(Cc2nnc(NC(=O)c3cc(OC)c(OC)c(OC)c3)s2)cc1OC	12.8%	?	6.0	12.9%
O=C(NC1CCCCC1)C(c1ccccn1)N(C(=O)c1csnn1)c1ccccc1 (stereo not given)	-6.1%	0.1%	nt	-2.5%
CCCOc1ccc(CCC(=O)O)cc1	10.7%	1.0%	7.8	1.1%
Cc1c(N2C(=O)SC(CC(=O)O)C2=O)c(=O)n(-c2ccccc2)n1C (stereo not given)	5.7%	-0.4%	3.0	0.3%
CSc1ccc(NC(=O)Nc2ccc(C(=O)NCC(=O)O)cc2)cc1	-8.3%	-2.6%	-6.3	-16.4%
Cc1ccc(-c2csc(NC(=O)c3ccc(S(=O)(=O)N4CCc5ccccc54)cc3)n2)cc1	0.4%	-0.7%	2.5	11.9%
COc1ccc(NC(=O)c2ccc(S(=O)(=O)N3CCCC3)cc2)cc1OC	-11.3%	-0.7%	nt	nt
COc1ccc(-n2c(COc3ccc(Cl)cc3)nnc2SCc2ccc(C#N)cc2)cc1	9.3%	2.0%	-10.0	14.4%
CS(=O)(=O)N(CC(=O)Nc1cccc(Cl)c1Cl)c1ccccc1	6.3%	-2.7%	3.6	-5.1%
Cc1cccc(-n2c(N)cc(=O)nc2SCC(=O)Nc2ccccc2)c1	1.5%	0.2%	-6.3	-0.1%
CCOc1ccc(NC(=O)COC(=O)c2ccc(S(=O)(=O)N3CCOCC3)cc2)cc1	-0.9%	-1.2%	nt	nt
O=C(Nc1cc(S(=O)(=O)N2CCOCC2)ccc1N1CCCC1)C1CC1	-1.7%	0.8%	1.9	0.6%
CC(Oc1ccc(F)cc1)C(=O)Nc1ccccc1C(=O)N1CCCCC1 (stereo not given)	-13.2%	-0.6%	nt	nt
O=c1c2cc(Br)ccc2[nH]c(=S)n1Cc1ccccn1	-23.5%	-1.1%	1.4	-45.2%
COc1ccccc1NC(=O)COC(=O)C1CCN(/C=C/C(=O)C(F)(F)F)CC1	0.8%	-1.0%	-0.7	-2.3%
CCSc1cc(N2CCCC2)nc(-c2ccc(C)cc2)n1	-2.3%	3.5%	-4.3	5.1%
O=C(O)c1cc2c(s1)-c1ccccc1CC2	-4.0%	3.3%	-3.0	-8.2%
COc1ccccc1NC(=O)C(NC(=O)c1ccc(C)cc1)c1ccccc1 (stereo not given)	-17.9%	0.1%	nt	-20.3%
O=C(CN1CCN(S(=O)(=O)c2ccccc2)CC1)Nc1ccc2c(c1)OCO2	16.4%	1.1%	-3.7	0.2%
CCN1C(=O)CC(c2ccccc2)N(C2CCCC2)c2nc(Nc3ccc(C(=O)NC4CCN(C)CC4)cc3OC)ncc21 (stereo not given)	0.7%	5.3%	nt	nt
COc1ccccc1NC(=O)c1cc2c(CO)cnc(C)c2oc1=Nc1cccc(C(N)=O)c1	3.7%	0.4%	nt	0.9%
N=C1N(/N=C/c2ccccc2)C(=Nc2ccccc2)C(=S)N1c1ccccc1	-6.9%	0.3%	2.6	-52.8%
O=C(c1cccc(S(=O)(=O)N2CCOCC2)c1)N(Cc1ccco1)Cc1cccs1	?	-0.7%	nt	nt
O=C(Nc1nnc(SCc2ccc(F)cc2)s1)c1ccc2c(c1)C(=O)N(c1ccccc1Cl)C2=O	-20.2%	2.9%	2.6	-1.6%
CC(=O)NC1=NN(C(C)=O)C(c2sccc2C)S1 (stereo not given)	-5.5%	3.5%	3.3	-7.4%
Cc1cc(Cl)c(OCCCNC2CCCC2)c(Br)c1	-7.3%	3.1%	nt	11.5%
COc1cccc(NC(=O)c2cnc(SC)nc2C)c1	16.7%	-0.6%	nt	-16.2%
CCSc1nnc(NC(=O)C(NC(=O)c2ccc(Cl)cc2)C(C)C)s1 (stereo not given)	-10.7%	0.8%	-6.6	?
COCCCC1CCN(C(=O)c2cc(COc3ccc(C)nc3)on2)CC1	-21.9%	?	nt	14.4%
O=C(NNC(=O)c1nc(Cl)ccc1Cl)c1ccc(F)cc1	1.2%	-0.7%	nt	-5.2%
COc1ccc(C2CC(=O)Nc3n[nH]c(-c4ccccc4)c32)cc1OC (stereo not given)	-9.4%	?	-5.9	-19.7%
CN(CC(=O)N1CCCCC1)S(=O)(=O)c1cccc2cccnc12	-2.9%	-1.9%	3.2	-2.6%
O=C1OCCC1Sc1ncnc2sccc12 (stereo not given)	-2.6%	-0.1%	0.2	-10.3%
O=C(COC(=O)C1=COCCO1)NC(=O)c1ccc(OC(F)F)cc1	13.6%	-3.0%	-1.9	-1.7%
O=C(Cn1c(-c2cscn2)nc2ccccc21)Nc1ccccc1F	12.4%	-1.7%	2.0	-0.4%
O=C(c1ccccn1)N1CCN(c2cccc(C(F)(F)F)c2)CC1	-1.4%	-0.4%	-2.7	-2.0%
O=C(CSc1ccc2nnc(-c3ccccn3)n2n1)N1CCOCC1	-12.7%	1.1%	-0.3	0.5%
NC(=O)Cc1nc(-c2ccc(Br)cc2)cs1	14.7%	0.0%	1.2	-35.6%
C=CCOCCN(CCOCC=C)C1=NS(=O)(=O)c2ccccc21	-0.6%	2.4%	3.5	-0.6%
COCCNC(=O)COc1ccccc1C	25.7%	1.2%	0.3	0.2%
Cc1cccc(N(C(=O)c2snc(C(N)=O)c2N)C(C)C(=O)NCC2CCCO2)c1 (stereo not given)	?	?	-2.6	-3.9%
O=C(NCc1ccccc1)c1c[nH]c2ccccc2c1=O	6.1%	-1.3%	nt	0.7%
CN(C)/N=C/c1cc([N+](=O)[O-])ccc1O	-1.0%	-1.5%	-2.7	-2.2%
CC1CCCCN1C(=O)CCNS(=O)(=O)c1ccc2c(c1)c(=O)n(C)c(=O)n2C (stereo not given)	9.0%	3.3%	nt	3.0%

Given with values under each structure: seven of the compounds above
Order of results: Rango release inh	Rango-impB inh	GLA inh pH 4.5	miR-21 FLuc
- O=C(Cn1c(-c2cscn2)nc2ccccc21)Nc1ccccc1F
→ 12.4%	-1.7%	2.0	-0.4%
- O=C(c1ccccn1)N1CCN(c2cccc(C(F)(F)F)c2)CC1
→ -1.4%	-0.4%	-2.7	-2.0%
- O=C(CSc1ccc2nnc(-c3ccccn3)n2n1)N1CCOCC1
→ -12.7%	1.1%	-0.3	0.5%
- NC(=O)Cc1nc(-c2ccc(Br)cc2)cs1
→ 14.7%	0.0%	1.2	-35.6%
- C=CCOCCN(CCOCC=C)C1=NS(=O)(=O)c2ccccc21
→ -0.6%	2.4%	3.5	-0.6%
- COCCNC(=O)COc1ccccc1C
→ 25.7%	1.2%	0.3	0.2%
- Cc1cccc(N(C(=O)c2snc(C(N)=O)c2N)C(C)C(=O)NCC2CCCO2)c1 (stereo not given)
→ ?	?	-2.6	-3.9%

The results go on:
SMILES	Rango release inh	Rango-impB inh	GLA inh pH 4.5	miR-21 FLuc
COc1cccc(C2C(C(N)=O)=C(C)Nc3nc(-c4cccc(Cl)c4)nn32)c1 (stereo not given)	0.4%	4.2%	-12.4	-6.2%
Cc1ccc(NC(C)c2cc(Cl)ccc2O)cc1 (stereo not given)	-11.2%	-1.4%	-0.5	3.1%
CC1COC(c2cccn2Cc2ccccc2Cl)=N1 (stereo not given)	-9.3%	-0.6%	4.2	-8.5%
COc1ccc(CNC(=O)c2c([S-])n(-c3ccc(C)cc3)c3cccc[n+]23)cc1	13.7%	1.5%	1.1	-4.8%
COc1ccc2nc(/C=N/NC(=O)CCCCCNC(=O)OC(C)(C)C)ccc2c1	13.0%	-0.7%	-13.4	-13.5%
CCO[C@@H]1OC(C(=O)N2CCCCCCC2)=C[C@H](c2cn(C(C)=O)c3ccccc23)[C@H]1CCCO	2.2%	-0.7%	-0.3	0.0%
Cn1cnnc1SCC(=O)Nc1cc(C(F)(F)F)ccc1N1CCOCC1	-9.5%	0.6%	0.4	-3.9%
O=C(NCc1cccs1)C(=O)NCC1OCCCN1S(=O)(=O)c1ccccc1 (stereo not given)	-9.7%	-1.9%	6.7	-7.0%
COCCCn1c(C2CCCCC2)nc2oc3cc(OC)ccc3c(=O)c2c1=O	2.2%	1.4%	8.4	-8.9%
CCCCc1nc2cc(C(=O)N3CCC[C@H]3CO)ccc2o1	0.3%	2.5%	nt	-41.5%
O=C(C1=C(O)C(=O)N(CCN2CCOCC2)C1c1ccc(F)cc1)c1cc2ccccc2o1 (stereo not given)	-15.8%	0.8%	nt	-6.1%
Cn1cc(C(=O)N2CCN(c3cccc(Cl)c3)CC2)c(=O)c2cc(S(=O)(=O)N3CCOCC3)ccc21	-10.7%	?	nt	-6.8%
COc1ccc(OCC(=O)OC2CCN(C)CC2)cc1	1.3%	8.3%	-1.1	0.7%
C/C(=N\NC(N)=S)c1ccccc1	-6.6%	-2.9%	-13.7	6.1%
O=C(O)CSc1nc2c(c(C(F)(F)F)n1)CCc1ccccc1-2	0.1%	-1.2%	4.1	-4.2%
O=C(Nc1cccc(C(F)(F)F)c1)C1CCN(S(=O)(=O)c2ccc(N3CCCC3=O)cc2)CC1	23.3%	2.6%	nt	?
CC1=NN(C(N)=S)C(=O)C1N=Nc1cccc(C(=O)O)c1 (stereo not given)	8.8%	-4.0%	nt	-0.8%
Cc1ccc(C(C)NC(=O)c2ccco2)cc1C (stereo not given)	7.8%	0.3%	2.6	-6.3%
CCCCCCSc1cccc(-c2nc3ccc(Cl)cn3c2NCc2ccccc2)c1	?	?	nt	nt
CCc1nnc(SCc2ccc(C(=O)OC)o2)n1N	-2.4%	-2.6%	1.4	-0.6%
Cc1cccc(NS(=O)(=O)c2cccc(C(=O)N3CCCCCC3)c2)c1	7.4%	-2.8%	nt	nt
Cc1nc2ccc(NC(=O)c3cccc(C(F)(F)F)c3)cc2o1	-9.6%	0.5%	-12.8	-26.7%
CCOc1cc(C(=O)N(C)CC(=O)Nc2cccc3ccccc23)ccc1OC	-8.6%	-2.6%	nt	nt

An excerpt, so the mix of outcomes need not match the whole.
